N370S GC mod = inhibits or activates N370S mutant glucocerebrosidase. N370S GC spleen homogenate, 4MU-glucoside fluorescence. Potency, µM (top dose mostly 59.4 µM), for the others: top-dose activity change, negative = inhibition, most hits filed as inhibitors. actives 0.092% (n = 330,000). P04062; active = well fitted inhibition curve with a large enough effect; inconclusive = small, poorly fitted or top-dose-only effect, or effect the other way, or another doubt; inactive = no such curve, though single readings can be large or run the other way;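 note: 0% = full enzyme activity and -100% = no enzyme basal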
Numbers without * were called inactive; ? = inconclusive; & = joins results of further samples. Potency is the fitted concentration of half-maximal effect. The list is partial; most or all hits stand in other tables.

N370S GC mod | Molecule
-13.4% | COc1cc(CNC2CCCC2)c(Br)cc1OC1CCCC1
-9.7% | COC(=O)c1cc(N2CCN(C)CC2)nc2ccccc12
9.4% | Cc1cc(C)n2nc(C(=O)OCCOc3ccc(Br)cc3)nc2n1
-2.5% | COc1cccc(OCc2cc(C(=O)N(C)Cc3nccn3C)no2)c1
0.9% | CCOc1ccccc1C(=O)NCCCN1CCN(CCCNC(=O)c2ccccc2OCC)CC1
4.8% | CCc1ccc(C2N3CC4([N+](=O)[O-])CN2CC([N+](=O)[O-])(C3)C4(C)C)cc1 (stereo not given)
4.1% | COc1ccc(OC(=O)CCN2C(=O)C3C4C=CC(C4)C3C2=O)cc1 (stereo not given)
3.1% | COc1cc(OC)cc(C(=O)Nc2ccc3c(c2)COC3=O)c1
2.6% | NC(=O)C1CCN(Cc2nc3c(Br)cc(Br)cc3c(=O)[nH]2)CC1
11.5% | c1ccc(C(c2nnnn2C2CCCC2)N2CCN(c3ccccc3)CC2)cc1 (stereo not given)
1.0% | O=C(CSc1nncn1-c1ccccc1)Nc1ccccc1F
-10.8% | CCN(CC)C(=O)CCCC(=O)N(CC)CC
1.1% | CCO[C@@H]1OC(C(=O)NC2CC2)=C[C@H](c2ccc(Br)cc2)[C@H]1CCCO
4.1% | CCOc1cc(S(=O)(=O)N(CC)CC)ccc1F
1.2% | Cc1ccc(C(=O)Cn2c(-c3ccccc3)noc2=O)cc1
3.3% | Cc1nc2ccccc2c(=O)n1NC(=O)C1CCCCC1
10.1% | COc1ccc2oc(=O)c(C(=O)NCc3ccc4c(c3)OCO4)cc2c1
-3.3% | CCOC(=O)C1(Cc2cccc(OC)c2)CCN(Cc2ccc3c(c2)OCCO3)CC1
-11.4% | COc1cc(C(=O)NCC(=O)NCCSc2ccc(Br)cc2)cc(OC)c1OC
0.7% | CN1CCN(c2ccnc(-c3ccccc3C(F)(F)F)n2)CC1
-0.1% | O=C(CCCn1cnc([N+](=O)[O-])n1)Nc1ccc(Cl)cc1Cl
-1.0% | Cc1ccc(NC(=O)C2CC(=O)N(c3ccc4c(c3)OCCO4)C2)cc1S(=O)(=O)N1CCCCCC1 (stereo not given)
-18.1% | COc1ccc(NC(=O)CSc2nnc(-c3ccccn3)n2N)cc1Cl
-3.1% | O=C(/C=C\NCC(=O)c1ccccc1)c1ccc(F)cc1
0.4% | O=C1CC(N2CCN(S(=O)(=O)c3cccc(C(F)(F)F)c3)CC2)C(=O)N1Cc1ccccc1 (stereo not given)
13.8% | Cc1cc(C)c(C#N)c(SCC(=O)N(C)C2CCCCC2)n1
12.0% | Oc1ccccc1OCC(O)c1ccccc1 (stereo not given)
2.5% | Cc1nc(NC(=O)/C=C/c2ccccc2)n[nH]1
-5.1% | O=C(Cc1ccccn1)c1ccc(F)cc1
-5.1% | C=CC[n+]1ccn(-c2nc3ccccc3nc2[N-]S(=O)(=O)c2cccs2)c1
-18.6% | CC1Oc2ccccc2N(CC(=O)c2ccc(F)cc2)C1=O (stereo not given)
11.4% | Cc1ccc([N+](=O)[O-])c(OCCN2CCCCCC2)c1
5.8% | CC(O)c1cccc(NC(=O)CCCc2ccccc2)c1 (stereo not given)
-1.2% | O=C(CCc1nc(-c2ccccc2F)no1)NCCc1ccccc1Cl
9.4% | CC(C)C(c1nnnn1CCc1ccccc1)N1CCSCC1 (stereo not given)
6.0% | CCN(CC)CCCNc1oc(-c2ccc(OC)c(OC)c2)nc1C#N
11.4% | O=C(CSc1ccc(-c2ccccn2)nn1)NC1CCCC1
4.5% | N/C(=N\OC(=O)Cc1ccc([N+](=O)[O-])cc1)c1ccccn1
2.4% | NC(=O)Nc1ccccc1C(=O)NCCc1ccccc1
-0.8% | N=c1c(S(=O)(=O)c2ccc(Br)cc2)cc2c(=O)n3ccccc3nc2n1Cc1ccccc1
-4.4% | Cc1ccccc1OCC(=O)Nc1cc(S(=O)(=O)N2CCCCC2)ccc1N1CCN(C)CC1
-1.1% | CC(C)CCNC(=O)CN(Cc1ccc(F)cc1)C(=O)CCC(=O)Nc1ccccn1
10.4% | Cc1ccccc1NC(=O)CN(C)S(=O)(=O)c1cccc2cccnc12
5.6% | c1cc2c(cc1NC1CCCCCC1)OCO2
0.0% | COC(=O)COc1ccc(S(=O)(=O)NCC2CCCO2)cc1Cl (stereo not given)
-5.0%&-1.9%&17.2% | C=C1CN(Cc2ccccc2)S(=O)(=O)c2ccccc21
-13.3% | COC(=O)c1[nH]c2ccc(Cl)cc2c1NC(=O)CN1CCC(C(N)=O)CC1
-0.1% | CC(C)CC(=O)NC(NCC1CCCO1)C(Cl)(Cl)Cl (stereo not given)
15.2% | CCC(C(=O)Nc1cccc(C(=O)O)c1)c1ccccc1 (stereo not given)
0.3% | Cc1cccn2c(=O)c3cc(C(=O)NCCN4CCOCC4)n(C)c3nc12
3.9% | CCn1c(SCC(=O)Nc2nc(C)c(C)s2)nnc1-c1cccnc1
0.5% | CC1CCCCC1NS(=O)(=O)c1ccc(-n2cnnn2)cc1 (stereo not given)
-13.3% | Cc1cc(OCc2nnc(SC(C)C(=O)O)n2Cc2ccccc2)ccc1Cl (stereo not given)
13.5% | CCOC(=O)c1cn(CC)c2cc(Cl)c([N+](=O)[O-])cc2c1=O
2.2% | CCCNC(=O)Cn1cccc1C(=O)c1ccccc1
13.0% | O=C(NCc1ccccc1)C1CC(=O)N(C2CCCCC2)C1 (stereo not given)

Structural class, the entries above containing two or more sulfur atoms.
N370S GC mod | Molecule
-5.1% | C=CC[n+]1ccn(-c2nc3ccccc3nc2[N-]S(=O)(=O)c2cccs2)c1
3.9% | CCn1c(SCC(=O)Nc2nc(C)c(C)s2)nnc1-c1cccnc1

New compounds follow:
N370S GC mod | Molecule
-24.8% | COc1cc(NC(=O)c2ccco2)c(OC)cc1NC(=O)Nc1cccc(Cl)c1
-3.6% | Cc1cccc(C)c1OCc1cc(C(=O)N2CCNC(=O)C2)no1
-2.9% | [O-]/[N+](=C/c1cccnc1)c1ccc(Br)cc1
-26.6% | CCOC(=O)c1sc(N(C)C(C)=O)nc1C
-16.7% | O=C(COc1ccccc1)Nc1ccc2oc(=O)ccc2c1
-8.9% | CCOc1ccc(CNC(=O)CCC(=O)N2Cc3ccccc3Oc3ncccc32)cc1
2.1% | CSc1nc2ccc(NC(=O)c3ccc(F)c(F)c3)cc2s1
-1.8% | O=C(COC(=O)c1ccc(S(=O)(=O)NCc2ccco2)cc1)Nc1ccccc1
-4.8% | COc1cc(NC(=O)CN(C)Cc2ccc(OC(F)F)cc2)c(C)cc1[N+](=O)[O-]
1.9% | O=C(C1CC(=O)N(c2ccc(Cl)cc2)C1)N1CCOCC1 (stereo not given)
3.9% | O=C(Cc1ccccc1)Nc1ccc(N2CCOCC2)cc1N1CCOCC1
-2.5% | COc1cccc(-c2nc(-c3ccc(NC(=O)c4cccnc4)cc3)no2)c1
2.1% | O=C(COc1ccc(Br)cc1)Nc1nnc(-c2cccnc2)s1
-6.9% | Cn1ccc2c([N+](=O)[O-])cccc2c1=O
-3.0% | CC(Cl)c1cc(-c2ncc(C(F)(F)F)cc2Cl)no1 (stereo not given)
-7.4% | O=S(=O)(c1ccccc1)c1nc(-c2ccc(Cl)cc2)oc1NCCCN1CCOCC1
3.3% | Cc1ccc(C)c(NC(=O)COC(=O)c2cccc(S(=O)(=O)N3CCCCC3)c2)c1
-23.4% | O=C(Nc1ccc(F)cc1)c1cccnc1NCCc1ccccc1
20.8% | COC(=O)c1ccccc1NC(=O)c1ccc(Cn2cc(Cl)cn2)o1
3.0% | CN(C)C(=O)NCc1ccc(S(N)(=O)=O)cc1
-2.5% | NC(=O)c1cc(S(=O)(=O)NCCc2ccc(S(N)(=O)=O)cc2)cs1
? | CC(C)(C)c1cc(C(=O)NNC(=O)Nc2ccccc2)n(Cc2ccccc2)n1
3.0% | COc1ccc(NS(=O)(=O)c2cc(NC(=O)c3sccc3C)ccc2N2CCOCC2)cc1
10.2% | O=C(NNc1nc2c(F)cc(F)cc2s1)C1COc2ccccc2O1 (stereo not given)
3.4% | Nn1c(SCC(=O)N2CCCCC2)nnc1-c1ccncc1
-0.3% | O=C(NCC1CCCO1)c1cccc(Br)c1 (stereo not given)
-6.0% | O=C(CNC(=S)N(CCCN1CCOCC1)Cc1cccs1)NC1CC1
-0.8% | CCOC(=O)C1CCN(C(=O)COc2ccc3c(C)cc(=O)oc3c2)CC1
2.0% | CC1Cc2ccccc2N1C(=O)CSc1nc2ccccc2n1CC(=O)N1CCOCC1 (stereo not given)
2.4% | CC(C)C(NS(=O)(=O)c1cccs1)C(=O)NCCN1CCN(c2ccccc2)CC1 (stereo not given)
0.3% | CCOC(=O)C1CCN(Cc2nc(-c3ccc(OC)c(OC)c3)no2)CC1
-17.2% | CCCCCCn1c(SCC(C)C)nc2c1c(=O)[nH]c(=O)n2C
1.4% | CCOC(=O)c1cc(C#N)c(SCC(=O)OC)[nH]c1=O
-8.1% | COC(=O)c1nc2ccccc2s1
0.6% | CCOc1cc(C(=O)Nc2cc(C)on2)cc(OCC)c1OCC
-6.6% | COc1cccc(-c2nnc(NC(=O)c3ccc(S(=O)(=O)N4CC(C)OC(C)C4)cc3)o2)c1 (stereo not given)
-18.4% | CC1CC(C)CN(C(=O)C(Cc2ccccc2)NC(=O)c2ccccc2)C1 (stereo not given)
-0.7% | Clc1ccc(-c2cn3nc4c(nc3n2)CCCC4)cc1
-1.6% | COc1cc(C2=NOC(C(=O)N3CCN(c4ccc(F)cc4)CC3)C2)cc(OC)c1OC (stereo not given)
-10.6% | COCCN1C(=O)C(=O)/C(=C(/O)c2ccc(S(=O)(=O)N3CCOCC3)cc2)C1c1cccc(OC)c1 (stereo not given)
-5.3% | COc1cc(C)c(Cl)c(C)c1S(=O)(=O)NCc1ccc2c(c1)OCO2
-1.0% | COc1ccc(S(=O)(=O)N2CCCCCC2)cc1C(=O)Nc1ccc(C(=O)N(C)C)cc1
3.4% | CC(=O)c1ccc(N2CCN(C(=O)CCC(=O)Nc3ccc4nc(N5CCN(C)CC5)cc(C)c4c3)CC2)cc1
-4.1% | Cn1nc(-c2ccccc2)c(C(=O)NC(C(=O)O)c2ccccc2)c1Cl (stereo not given)
11.2% | CCN1CCN(C(=S)Nc2cccc([N+](=O)[O-])c2)CC1
1.3% | CCCNC(=O)[C@H](Cc1c[nH]c2ccccc12)NC(=O)c1ccccc1Cl
1.7% | O=C(CN1C(=O)CCC1=O)Nc1nc(-c2ccc(Cl)s2)cs1
14.6% | Cc1cccc(NC(=S)NCC(c2cccnc2)N(C)C)c1C (stereo not given)
-4.9% | CCOC(=O)c1ccc(OCC(=O)c2ccc(O)cc2O)cc1
3.0% | O=C(CCN1C(=O)c2cccc3cccc(c23)C1=O)N1CCN(Cc2ccc3c(c2)OCO3)CC1
-3.6% | Cc1ccc(-n2nc3cc(C)c(NC(=S)NC(=O)/C=C/c4ccco4)cc3n2)cc1
8.3% | CCCCOc1ccccc1NC(=O)CC1SC(=NCC)N(CC)C1=O (stereo not given)
-6.1% | CCOC(=O)c1[nH]c2ccccc2c1NC(=O)CN1CCCCC1
9.8% | O=C(Nc1cc(C(F)(F)F)ccc1F)C1CCCC1
11.6% | CCOc1ccccc1C(=O)Nc1cccc(-c2nnc(-c3ccccc3)o2)c1
-10.0% | CC(C)[C@@H](C(=O)NCC1CCC(C(=O)O)CC1)n1nnc2ccccc2c1=O (stereo not given in full)

The listing continues.
N370S GC mod | Molecule
-2.6% | COc1ccc(Oc2nc(Oc3ccc(OC)cc3)nc(Oc3ccc(OC)cc3)n2)cc1
3.1% | N#CCCC12CCCCC1=Nc1ccccc12 (stereo not given)
11.0% | CC(=O)c1c(C)n(C)c2ccc(OC(=O)c3ccco3)cc12
0.3% | O=S(=O)(NCC1CCCO1)c1cccc(C(F)(F)F)c1 (stereo not given)
5.6% | CCN(CC)C(=O)c1cnn(-c2ccccc2)c1NC(=O)c1ccccc1F
8.8% | COC(=O)C1(Cc2ccccc2)NC(c2ccccc2C)C2C(=O)N(c3ccc4c(c3)OCO4)C(=O)C21 (stereo not given)
19.9% | O=C(NNC(=O)C1CCN(c2ncccn2)CC1)c1ccc(Cl)cc1
-1.6% | O=C(N/C(=C/c1ccc(Cl)cc1)C(=O)N1CCCCC1)c1ccco1
-0.7% | CCP(=O)(c1ccccc1)C(C)(C)O (stereo not given)
0.0% | O=C(CCc1ccc(S(=O)(=O)NCCc2ccccc2)cc1)Nc1ccc2c(c1)OCO2
12.5% | CC(O)C(=O)N/N=C/c1ccccc1C(=O)O (stereo not given)
5.0% | O=C(Nc1ccc(Cl)cc1)ON=C1CCCC1
-12.8% | N=C1/C(=C/c2cccn2CCOc2ccccc2)C(=O)N=C2SC=C(c3ccccc3)N12
? | CC(C)(C)c1[nH]nc2c1C(c1ccccc1OC(=O)N1CCOCC1)C(C#N)=C(N)O2 (stereo not given)
1.8% | COc1ccccc1N1CCN(CC(O)COc2ccc(S(=O)(=O)N3CCOCC3)cc2)CC1 (stereo not given)
-7.0% | Cc1cc(C)c(C(=O)CN2C(=O)NC3(CCCCC3)C2=O)cc1C

Next section, overlapping the part above by 3 compounds.
N370S GC mod | Molecule
? | CC(C)(C)c1[nH]nc2c1C(c1ccccc1OC(=O)N1CCOCC1)C(C#N)=C(N)O2 (stereo not given)
1.8% | COc1ccccc1N1CCN(CC(O)COc2ccc(S(=O)(=O)N3CCOCC3)cc2)CC1 (stereo not given)
-7.0% | Cc1cc(C)c(C(=O)CN2C(=O)NC3(CCCCC3)C2=O)cc1C
-10.6% | CSc1cc(-c2ccccc2)n(Cc2ccccc2Cl)c(=O)c1C#N
-2.8% | CC(=O)c1ccc(NC(=O)c2ccc(NC(=O)c3ccco3)cc2)cc1
? | COC(=O)C1=CN(C)C=C(C(=O)OC)C1c1ccccc1Cl
1.2% | COc1ccc(OC)c(C2=Nn3c(nnc3-c3cc(C)[nH]n3)SC2)c1

Part of the list above in a different format:
CSc1cc(-c2ccccc2)n(Cc2ccccc2Cl)c(=O)c1C#N
  N370S GC mod: -10.6%

CC(=O)c1ccc(NC(=O)c2ccc(NC(=O)c3ccco3)cc2)cc1
  N370S GC mod: -2.8%

COC(=O)C1=CN(C)C=C(C(=O)OC)C1c1ccccc1Cl
  N370S GC mod: ?

Compound activity (PubChem BioAssay)
